Screens as filed in PubChem.
LANA-nucl inh = inhibitors of KSHV LANA-nucleosome binding, primary screen, biochemical, fluorescence polarization, FITC-LANA1-23, chicken nucleosomes; FITC-LANA1-23 / chicken nucleosome fluorescence polarization; hits give low values; z-score (no concentration beside the values); actives 0.3% (n = 51,000);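 active = both repeat wells score below -2 in polarization z-score versus plate sample wells, excluding overly bright wells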;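 also: 100 nL library stock added to about 30 µL; numbers are from one replicate; some results filed as inactive read as strong as hits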
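Test system: purified chicken nucleosomes with FITC-labelled LANA N-terminal peptide (1-23); Input: 240 nM purified chicken nucleosomes (480 nM peptide binding sites), final; Medium: TEN-BT buffer, pH 7.5; Timing: 10–45 min, room temperature; Technique: fluorescence polarization, 480 nm excitation, 535 nm parallel and perpendicular emission; Replication: duplicates.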
BasE inh = BasE siderophore enzyme inhibitors, primary screen, biochemical, Acinetobacter baumannii ATCC 17978, fluorescence polarization; purified BasE, fluorescence polarization binding displacement; inhibition, % (concentration not given with the values); actives 0.1% (n = 84,000); AID 485350, 2010;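 active = both replicates above 25% with normal brightness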;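 also: 0% = negative plate control signal and 100% = positive plate control signal; stock transfer was 100 nL into about 30 µL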
* = called active by the depositor; x = no result given; & = joins results of further samples. An excerpt (hit frequency here may not be typical).

SMILES	LANA-nucl inh	BasE inh
Cc1cccc(C)c1NC1OC(=O)c2ccccc21 (stereo not given)	x	-0.1
O=C(O)c1ccc(CSc2nnc(-c3ccccc3)o2)cc1	x	1.9
O=C1CC(N2CCOCC2)C(=O)N1 (stereo not given)	-0.88	1.6
COc1ccc(Cn2nnnc2C(C(C)C)N2CCc3ccccc32)cc1 (stereo not given)	0.55	-1.1
COC(=O)Cn1c(=NC(=O)CSCC(=O)Nc2nccs2)sc2cc(OC)ccc21	0.51	1.1
FC(F)(F)Oc1ccccc1NC(=S)NCc1ccc2c(c1)CCO2	x	-0.1
O=C(NCCN1CCN(C(=O)NC2CCCCC2)CC1)NC1CCCCC1	-0.46	2.4
Cc1ccc(CNC(=O)CCCn2nc(-n3cccc3)c3c(C)cc(C)nc32)cc1	0.89	1.1
O=C(O)c1nccnc1C(=O)NC1CCN(Cc2c(F)cccc2Cl)CC1	x	1.0
CN(Cc1ccccc1)Cn1[nH]c(=O)ccc1=O	2	-0.6
CCOC(=O)Cn1c(=O)oc2cc(S(=O)(=O)NCc3ccccc3OC)ccc21	-0.24	-1.7
Cc1c(C)c(C)c(C(=O)c2ccccc2C(=O)NN)c(C)c1C	x	2.2
CC(C)CCn1c(=O)c2ccccc2n2c(CN3CCCC3)nnc12	x	-0.6
O=C(CC(c1ccccc1)c1ccccc1)Nc1nnc(-c2ccccc2)o1	x	1.7
CCCC(=O)Nc1nc2c(ncn2C2O[C@H]3COP(=O)(O)O[C@@H]3[C@@H]2OC(=O)CCC)c(=O)[nH]1 (stereo not given in full)	0.49	-4.7
O=c1oc2c3c(ccc2c2c1CCC2)OCN(CCc1ccccc1)C3	0.54	-3.0
CCc1c(C(=O)N2CCN(Cc3cccc(OC)c3)CC2)csc1C	0.67	-0.7
CCCNC(=O)Nc1ccc2c(c1)CCC2	-0.26	-0.5
COc1cccc(C(O)C(F)(F)F)c1 (stereo not given)	0.045	5.1
O=C(Oc1ccc(-c2ccccc2)nn1)c1cccs1	-0.33	4.1
CC(Sc1nc(C2CC2)n(-c2ccccc2)n1)C(=O)NC(C)(C#N)C(C)C (stereo not given)	x	-0.3
Cc1nc2ccc(Br)cc2c(=O)n1-c1ccccc1N1CCOCC1	0.17	1.3
CC1(C)CC(=O)C=C(NCC2CCN(C(=S)Nc3ccccc3)CC2)C1	x	3.9
O=S(=O)(NC1CCc2ccccc21)c1ccc(S(=O)(=O)N2CCCC2)cc1 (stereo not given)	3	-2.9
COc1ccc(-n2nc3cc(C)c(NC(=S)NC(=O)c4oc5ccccc5c4C)cc3n2)cc1	0.5	-0.3
Cc1[nH]n(-c2ccccc2)c(=O)c1Sc1c(F)c(F)c(F)c(F)c1F	2.1	0.2
O=C(C1CC(=O)N(c2ccccc2)C1)N1CCc2ccccc2C1 (stereo not given)	0.3	0.2
CC(=O)NC(NC(C)=O)c1ccccc1	0.91	-2.3
O=C(COc1ccc(-c2nnco2)cc1)N1CCSc2ccccc21	x	0.1
N#C/C(=C\N1CCN(Cc2ccccc2)CC1)S(=O)(=O)c1ccc(Cl)cc1	-0.93	0.1
CC(C)(CNC(=O)c1ccccc1NS(C)(=O)=O)N1CCCCC1	x	2.1
CCN(CC)c1ccc2ccc(=O)oc2c1	-0.33	1.1
Cc1[nH]c2c(C)cccc2c(=O)c1CN1CCOCC1	-0.2	-0.9
CCCCn1c(=O)n(C)c(=O)c2cc3c(nc21)-c1cc(F)ccc1OC3O (stereo not given)	x	-1.2
Cn1c(=O)oc2cc(NC(=O)c3ccccc3)ccc21	0.18	0.0
CCCNS(=O)(=O)c1ccc(CCC(=O)NC2CCCC2)cc1	-0.3	2.6
O=C(Nc1csc2ccccc12)N1CCOCC1	0.63	x
CC(C)(C)C(=O)COC(=O)c1cc(-c2ccco2)nc2ccccc12	x	0.5
CN1c2ccccc2C(=O)/C(=C\Nc2ncccn2)S1(=O)=O	x	-1.6
CCC1CCCCN1S(=O)(=O)c1ccc(NC(=O)c2ccncc2)cc1 (stereo not given)	-0.37	1.3

Shown in CSV form: part of the list above
SMILES,LANA-nucl inh,BasE inh
Cc1nc2ccc(Br)cc2c(=O)n1-c1ccccc1N1CCOCC1,0.17,1.3
CC1(C)CC(=O)C=C(NCC2CCN(C(=S)Nc3ccccc3)CC2)C1,x,3.9
O=S(=O)(NC1CCc2ccccc21)c1ccc(S(=O)(=O)N2CCCC2)cc1 (stereo not given),3,-2.9
COc1ccc(-n2nc3cc(C)c(NC(=S)NC(=O)c4oc5ccccc5c4C)cc3n2)cc1,0.5,-0.3
Cc1[nH]n(-c2ccccc2)c(=O)c1Sc1c(F)c(F)c(F)c(F)c1F,2.1,0.2
O=C(C1CC(=O)N(c2ccccc2)C1)N1CCc2ccccc2C1 (stereo not given),0.3,0.2

Next entries follow:
SMILES	LANA-nucl inh	BasE inh
CC(C(=O)N1CCc2ccccc21)N(C)CC(=O)Nc1ccccc1Cl (stereo not given)	x	0.1
Nc1nnc2c(Nc3ccccc3)nc3nonc3n12	-0.17	-0.1
COC(=O)c1cc(NC(=O)C2CC(=O)NC3=C2C(=O)CCC3)cc(C(=O)OC)c1 (stereo not given)	-0.37	-0.6
O=C(CNCc1ccc2c(c1)OCO2)NCc1ccc2c(c1)OCO2	2.1	-3.9
Cc1cnc(C(=O)O)c[n+]1[O-]	1.2	x
Cc1cc(NCc2cccnc2)no1	-0.67	0.4
c1ccc(-c2nc(-c3ccn[nH]3)cs2)cc1	0.23	-1.3
O=C(O)c1ccccc1Nc1ccccn1	-0.25	2.4
CCN(CC)C(=O)Sc1c(Br)cc(Br)cc1Br	-0.39	x
COc1cc(/C=N/Nc2nc(C)cc(=O)[nH]2)ccc1O	x	14
CC1=CC(c2ccccc2)=Nc2ccc(C)cc2N1	1.2	-4.8
Clc1ccccc1-c1nnc(CNC2CC2)o1	x	-0.5
O=C(NC1CCCc2ccccc21)c1cccs1 (stereo not given)	x	0.8
O=C(COc1nccc2ccccc12)N1CCCc2ccccc21	x	1.6
NC(=S)N/N=C1\CCCC\C1=C/c1ccco1	-0.059	-1.9
C=CCN1C(=O)/C(=C2\SC(N)=NC2=O)c2ccccc21	1.8	-1.6
CCCCc1nc(Cl)c(CO)n1Cc1ccc(-c2ccccc2-c2nn[nH]n2)cc1	0.12&-0.38	0.3
COc1ccccc1C1CCN(C(=O)c2cccnc2Sc2ccc(C)cc2)CC1	x	-3.5
O=S(=O)(Cc1ccc(Cl)cc1)N1CCCC1	0.32	-0.2
O=C(N/N=C1/C(=O)c2cccc3cccc1c23)c1ccncc1	x	2.8
C=CCN(CC=C)C(=S)Nc1ccc(S(N)(=O)=O)cc1	0.69	0.5
C/C(=C/C(=O)C(F)(F)F)N1CCC(C(N)=O)CC1	x	2.1
COc1ccc(/C=C2\C(=O)NC(=O)N(C)C2=O)cc1	-0.39	0.8
CC(=O)Nc1ccc(Cl)cn1	1.7	0.0
CCOC(=O)c1c(C)oc2nc(C)nc(N3CCc4ccccc43)c12	x	1.8
COc1ccc(C(CC(=O)Nc2ccc3c(c2)OCO3)N2Cc3ccccc3C2=O)cc1 (stereo not given)	0.12	1.6
CN(CC(=O)Nc1cccc(F)c1)CC(=O)N1CCN(C(=O)c2ccco2)CC1	x	0.1
Cc1cc(Nc2cccc(C(F)(F)F)c2)nc2ccc(NC(=O)c3ccc(Br)o3)cc12	-0.76	0.6
CCOC(=O)c1ccc(NC(=O)CSC2=NC(=O)C(CC)C(=O)N2)cc1 (stereo not given)	x	0.8
COC(=O)c1ccccc1NC(=O)CSc1nnc(-c2cc3cccc(OC)c3o2)n1C	-0.59	1.2
CCOC(=O)Cc1csc(SCC(=O)NC)n1	x	-0.3
NC(=O)Cc1c[nH]c2ccccc12	x	1.8
CCN=c1scc(-c2ccc(Br)s2)n1N=C1CCCCC1	x	-0.6
CC1Cc2ccccc2N1CC(=O)NC(=O)NC1CCCCC1 (stereo not given)	x	1.2
CN(CC(=O)NC1CCCC1)Cc1ccc(Cl)s1	x	0.7
CCC(=O)N(c1nnc(SCC(=O)c2ccc(CC(N)=O)s2)s1)C1CC1	x	-0.4
CCCN(CC1CC1)C(=O)CSc1nc2ccccc2c(=O)n1CCC	x	0.4
N#Cc1cn(CC(=O)Nc2ccccc2C(F)(F)F)c2ccccc12	-0.6	0.6
Cn1nc(C(=O)OCC(=O)NCc2ccc(Cl)cc2)c2ccccc2c1=O	x	-2.8
O=C(Oc1ccc(-c2nnco2)cc1)c1cccc(S(=O)(=O)N2CCc3ccccc32)c1	x	1.7

The last three records of the part before open the next one.
SMILES	LANA-nucl inh	BasE inh
N#Cc1cn(CC(=O)Nc2ccccc2C(F)(F)F)c2ccccc12	-0.6	0.6
Cn1nc(C(=O)OCC(=O)NCc2ccc(Cl)cc2)c2ccccc2c1=O	x	-2.8
O=C(Oc1ccc(-c2nnco2)cc1)c1cccc(S(=O)(=O)N2CCc3ccccc32)c1	x	1.7
COc1cc(N(C(=O)c2cnccn2)C(C(=O)NCc2ccccc2)c2cccs2)ccc1-n1cnnn1 (stereo not given)	0.22	-0.3
CCC(=O)c1cc(Cl)ccc1O	x	1.4
O=C1NC(=O)C2C1Sc1[nH]c(=O)sc1C2c1c[nH]c2ccccc12 (stereo not given)	x	6.5
O=C(COC(=O)C12CCC(=O)N1c1ccccc1S2)c1ccc2c(c1)OCO2 (stereo not given)	x	2.2
CN(n1cnc2ccsc2c1=O)S(=O)(=O)c1ccc(Cl)cc1	x	1.9
N#Cc1c(C(F)(F)F)cc(=O)[nH]c1S	x	2.9
COc1ccc(N(C(C)=O)c2nc3ccccc3[nH]2)cc1	0.64	0.2
O=C1CSc2nnc(Cn3nnc4ccccc43)n2N1	-0.11	2.4
CCC(=O)Nc1ccc2c(c1)oc1ccccc12	0.49	-0.3
Cn1cc(-c2nnc(-c3ccccc3)o2)c2ccccc21	-0.36	1.2
COc1ccc(-n2ccnc2SCC(=O)N2CCCC2c2cccs2)cc1 (stereo not given)	x	2.1
O=C(CSc1nc2sc3c(c2c(=O)n1Cc1ccco1)CCCC3)NC(=O)NC1CC1	x	0.4
O=C(O)COc1ccc2nncn2n1	0.68	-1.1
Clc1ccc2c(c1)C(N1CCNCC1)=Nc1ccccc1O2	0.48&0.034&0.82	-2.0
COc1ccc(S(=O)(=O)CCc2nc3ccccc3n2CC(=O)O)cc1	1.8	-3.4
CCOC(=O)C1=C(CSc2nnc(-c3ccccc3)n2CC)NC(=O)NC1c1cccs1 (stereo not given)	x	0.0
Cc1cc2nc(N3CCc4ccccc43)c3ccccc3n2n1	x	3.9
O=C(CSc1ccccc1)OCC(=O)c1cc2ccccc2o1	x	-0.8
CN(C)S(=O)(=O)c1ccc(C(=O)OCC(=O)c2cc3ccccc3o2)cc1	x	-7.4
O=C(CC(c1cccs1)N1Cc2ccccc2C1=O)N1CCC2(CC1)OCCO2 (stereo not given)	-0.5	0.4
O=C(NCCc1nnc2ccc(NCCO)nn12)c1ccccc1	-0.82	1.3
NC(=O)NCC(=O)N1CCN(C(=O)c2ccccc2)CC1	x	2.8
CC1CCN(C(=O)c2ccc(N3C(=O)c4ccccc4C3=O)cc2)CC1	0.028	1.5
Cc1cccc(C(=O)OCC(=O)NC23CC4CC(CC(C4)C2)C3)c1O	x	1.1
O=C(Oc1ccc(Cl)cc1Cl)c1csc(-c2ccc3nonc3c2)n1	0.15	3.0
N#CC(C#N)=C1C(=O)c2ccccc2C1=O	0.25	-0.2
Cc1cc(C)c(C)c(S(=O)(=O)Nc2ccccc2C(=O)NCCCN2CCOCC2)c1C	x	1.1
Cc1ccc(S(=O)(=O)N2CCN(c3ccccc3)CC2)s1	x	-0.8
Oc1ccccc1C1OC2CCCCC2C2=CCCCC21 (stereo not given)	0.41	2.3
O=C(CN1C(=O)c2ccccc2C1=O)Nc1ccccc1C(=O)N1CCCC1	-0.41	3.0
Cc1ccc(C(=O)NCC(=O)NC2CC2)cc1	x	2.7
CC[C@H]1OC(=O)C[C@@H](O)[C@H](C)[C@@H](O[C@@H]2O[C@H](C)[C@@H](O[C@H]3C[C@@](C)(O)[C@@H](O)[C@H](C)O3)[C@H](N(C)C)[C@H]2O)[C@@H](CC=O)C[C@@H](C)C(=O)/C=C/C(C)=C/[C@@H]1CO[C@@H]1O[C@H](C)[C@@H](O)[C@@H](OC)[C@H]1OC	0.14&0.37	-1.4
CCC(=O)Nc1cccc(-c2ccc(N3CCC(C)CC3)nn2)c1	0.71	-1.1
COc1ccc(N2CCN(C(=O)COc3cc(=O)n(C)c4ccccc34)CC2)cc1	-0.96	0.9
COc1ccc(C2=NC(=O)/C(=C\c3cc(OC)c(OC)c(OC)c3)O2)cc1	x	-6.5
Nc1nc(=S)c2[nH]cnc2[nH]1	0.76&0.13	1.9
Clc1ccc(OCCN2CCN(c3nc4ccccc4c4nc(-c5ccncc5)nn34)CC2)cc1	0.65	6.8
CC1C/C(=N/Nc2nc3ccccc3[nH]2)CC(C)(C)C1 (stereo not given)	x	0.5
CCOC(=O)c1nnn2c1nc(N1CCN(c3ccccc3)CC1)c1ccccc12	x	2.5
N#CCC(=O)NS(=O)(=O)c1ccc(Cl)cc1	-0.32	2.6
CCOC(=O)CNc1nc2ccccc2n2cnnc12	-3.1	-12

Quoted from the listing (4 entries):
SMILES	LANA-nucl inh	BasE inh
CC1C/C(=N/Nc2nc3ccccc3[nH]2)CC(C)(C)C1 (stereo not given)	x	0.5
CCOC(=O)c1nnn2c1nc(N1CCN(c3ccccc3)CC1)c1ccccc12	x	2.5
N#CCC(=O)NS(=O)(=O)c1ccc(Cl)cc1	-0.32	2.6
CCOC(=O)CNc1nc2ccccc2n2cnnc12	-3.1	-12
